TAR Tat displ – HIV-1 TAR-Tat binding disruption; HIV-1 TAR RNA, Tat peptide displacement FRET; hits give high values; z-score (no concentration beside the values); hit rate 0.6% among 100,000;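 note: score is relative to mean and SD of negative controls; some compounds called inactive have numbers as strong as hits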
CDC25B CDK2 inh – human CDC25B-CDK2/CyclinA binding inhibition; P30305+P24941; HTRF CDC25B-CDK2/CyclinA binding, anti-His/anti-Flag; hits give high values; z-score (no concentration beside the values); hit rate 0.72% among 94,000; AID 1259370;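 note: score is relative to mean and SD of negative controls; strong numbers were not always called active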
Active calls of the source: *; · = no result given.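 Rule for the calls: active = z-score from 3 up in half or more of its runs; inactive = the rest.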

SMILES | TAR Tat displ | CDC25B CDK2 inh
COc1ccc(N2CCCS2(=O)=O)cc1NC(=O)COc1ccccc1F | 0.65 | ·
COCCn1c(SCC(=O)OCc2ccccc2)nnc1-c1c[nH]c2ccccc12 | · | -1.2
c1ccc(C2=Nc3ccccc3C(c3ccncc3)=NN2)cc1 | 0.75 | 1.8
c1ccc2c(Nc3ccc4c(c3)OCO4)c3c(nc2c1)CCCC3 | · | -1.9
CC1CC(C)CN(c2nc(N3CCCCC3)nc(N)c2[N+](=O)[O-])C1 (stereo unspecified) | 0.42 | ·
CC1CCc2c(cnc3c(C(=O)NC4CCCCC4)cnn23)C1 (stereo unspecified) | -1.3 | ·
CCN(CC)CCOC(=O)c1c(C)nc2n(C)c3ccccc3n12 | -0.4 | -3.1
Cc1ccc2ncc(C(=O)N3CCc4ccccc4C3)c(=O)n2c1 | -0.57 | -1.1
CCSc1nc2n(n1)C(c1ccc(Br)cc1)C1=C(CCCC1=O)N2 (stereo unspecified) | 3.2 | -1.5
CCN(CC)S(=O)(=O)c1c(C)nn(S(=O)(=O)c2cccs2)c1C | 0.59 | ·
C=CCSc1ncc(Cl)c(C(=O)Nc2sc3c(c2C(=O)NCC2CCCO2)CCC3)n1 (stereo unspecified) | 2.2 | -1.7
CCCN(CCC)c1cc(C)nc2nc(-c3ccccc3)nn12 | 1.2 | 0.55
CCOC(=O)N1CCN(S(=O)(=O)c2cccc3nonc23)CC1 | -0.3 | -1.2
CCCN1CCN(c2ncnc3sc(C(=O)N4CCC(N5CCCCC5)CC4)c(C)c23)CC1 | 2.3 | ·
NC(=O)Cn1nc(C(F)(F)F)c2c1CCCC2 | 1.1 | 0.35
CCc1ccccc1NC(=O)c1cc(S(=O)(=O)N2CCCC(C(=O)O)C2)ccc1F (stereo unspecified) | · | -1.1
O=C(COc1ccc(F)cc1)NCC(c1ccco1)N1CCCC1 (stereo unspecified) | -0.45 | -0.51
CC1CC(C)CN(c2nnc(NC(=O)Nc3ccc(F)cc3)s2)C1 (stereo unspecified) | 1.1 | 0.32
COC(=O)COc1ccc2c(=O)c(Oc3cc(C)cc(C)c3)coc2c1 | · | -0.88
O=c1c(O[C@@H]2O[C@H](CO)[C@H](O)[C@H](O)[C@H]2O)c(-c2ccc(O)c(O)c2)oc2cc(O)cc(O)c12 | 27* | ·
CCCS(=O)(=O)N1CCCc2ccc(NS(=O)(=O)c3cc(OC)ccc3OC)cc21 | 1.9 | ·
CC(=O)N1c2ccc(S(=O)(=O)N3CCOCC3)cc2CC1C(=O)N1CCc2ccccc2C1 (stereo unspecified) | -0.3 | ·
CCC12CN3CC(CC)(CN(C1)C3c1ccc(Br)cc1)C2O (stereo unspecified) | 0.59 | -1
Cc1nnsc1C(=O)Nc1sc2c(c1C(=O)NCC1CCCO1)CCCC2 (stereo unspecified) | 1.6 | -1.6
O=C(Nc1ccc(OC(F)(F)F)cc1)c1ccc(S(=O)(=O)N2CCOCC2)o1 | · | -0.77
Following part.
SMILES | TAR Tat displ | CDC25B CDK2 inh
COc1ccc(NC(=O)c2ccco2)c2cccnc12 | -0.64 | 1.8
O=c1c2ccccc2n2c(-c3ccc(F)c(F)c3)nnc2n1Cc1ccc(F)cc1 | 1.6 | -0.5
CCOC(=O)c1c(C)oc2nc(C)nc(N3CCc4cc(OC)c(OC)cc4C3C)c12 (stereo unspecified) | 0.04 | ·
CN1CCSc2ccc(C(=O)O)cc21 | · | -1.8
COc1ccc(OCCNC(=O)NS(=O)(=O)c2ccc(C)cc2)cc1 | · | -2.3
O=C(Nc1nc(-c2cc3ccccc3oc2=O)cs1)c1ccco1 | · | 0.1
COc1ccccc1-c1c(C)nn2c(NCc3ccc(C)cc3)cc(C)nc12 | · | -1.2
Cc1cc(-c2ccc(C(C)C)c(S(=O)(=O)Nc3ccc(Cl)cn3)c2)on1 | 0.91 | ·
CC1CCCN(c2nc(N)c([N+](=O)[O-])c(Nc3cccc(F)c3)n2)C1 (stereo unspecified) | 0.15 | ·
O=c1[nH]c2cc3c(cc2c(=O)n1CCCc1nc(-c2cccc(Cl)c2)no1)OCO3 | 0 | ·
Cc1cc(=O)n2c([nH]c3ccccc32)c1C#N | -0.41 | -0.83
CCc1nc(N2CCCC2)c(C#N)c2c1CCCC2 | · | -1.3
O=C(Nc1ccccc1Sc1ncc([N+](=O)[O-])cc1C(F)(F)F)c1ccccc1 | · | 1
CSC(=S)N(C)NC(=O)Nc1cccc(C(F)(F)F)c1 | · | 4.9
CCCCC12CN3CC(C)(CN(C1)C3c1cccc(C)c1)C2=O (stereo unspecified) | 0.13 | -0.16
O=C(O)c1nccnc1C(=O)NNc1c(Cl)cncc1Cl | · | -1.2
COc1ccccc1N1CCN(C(=O)CCc2nnc3ccc(N4CCOCC4)nn23)CC1 | 1.2 | ·
Cc1ncc(-c2ccc(S(=O)(=O)N3CCc4ccccc4C3)cc2)o1 | 1.3 | ·
CCC(C)(C)C1CCc2c(sc(N)c2C#N)C1 (stereo unspecified) | · | -1.1
O=c1[nH]nc2c3cc(F)ccc3n(Cc3ccccc3F)cc1-2 | 1.3 | -1.4
CC1CN(C(=O)N2CCC(C(=O)NC3CCCc4ccccc43)CC2)c2cc(Cl)ccc2O1 (stereo unspecified) | -2.1 | ·
COc1ccc(-c2noc(COc3ccccc3)n2)cc1 | · | -1.2
COc1ccc(/C(O)=C2\C(=O)C(=O)N(CCN(C)C)C2c2ccc(OC)cc2)cc1 (stereo unspecified) | 0.08 | -1.2
CN1CCN(CCCCC(=O)O)CC1 | 2.2 | 0.46
O=C(NCc1ccco1)c1cnc2sc(N3CCCCC3)nn2c1=O | 1.7 | ·
The list continues.
SMILES | TAR Tat displ | CDC25B CDK2 inh
Cc1c(Cl)cccc1NC(=O)N1CC2CCCN2c2ccccc21 (stereo unspecified) | -3 | ·
Cn1c2ccccc2c2cnn(CC(=O)N3CCN(c4ccccc4)CC3)c(=O)c21 | 1.5 | 0.95
COc1ccc(OCC(F)(F)F)c(C(=O)Nc2ccc(Cl)cc2)c1 | · | -1.5
C#C[C@]1(O)CC[C@H]2[C@@H]3[C@H](C)CC4=C(CCC(=O)C4)[C@H]3CC[C@@]21C | 22 | ·
O=C(Nc1cccnc1)c1ccc(CSc2ccc(Cl)cc2)o1 | · | 0.89
Cc1ccc(C(=O)c2coc3ccc(O)c(CN(C)C)c23)cc1 | 2.4 | -0.06
NS(=O)(=O)/C=C/c1ccccc1 | · | -1
CCc1nn(CC(=O)N2CCC3(CC2)OCCO3)c(=O)c2cc3occc3n12 | · | -0.81
CCCS(=O)(=O)Nc1cccc(-c2cn3c(C)csc3n2)c1 | 1.5 | ·
Cc1cc(C)cc(NS(=O)(=O)c2cc(-c3cnc(C)o3)ccc2C)c1 | 0.86 | ·
COc1ccc(/C(O)=C2\C(=O)C(=O)N(CCCn3ccnc3)C2c2ccc(Cl)cc2)cc1 (stereo unspecified) | -0.07 | -1.5
N=c1scc(-c2ccc(Cl)cc2)n1-c1ccccc1N1CCOCC1 | · | -1.7
COc1cccc(/C=C/c2nc(C#N)c(NCc3ccco3)o2)c1 | 0.57 | 0.83
Fc1ccc(CNc2c(-c3ccc(Cl)cc3)nc3ncccn23)cc1 | 1.4 | ·
COc1ccc(OCC(=O)N2c3ccccc3Sc3ccccc32)cc1 | 0.71 | 1.4
COc1ccc(N2CC(=O)N(c3ccc(OC)c(OC)c3)CC2=O)cc1OC | 0.92 | -0.4
Cc1ccc(Cn2c(CCCC(=O)O)nc3cccnc32)cc1 | -5 | ·
Cc1ccn2c(=O)c(C(=O)NCC(C)O)c(O)nc2c1 (stereo unspecified) | 1.6 | -1.1
Cc1cc2oc(C(=O)Nc3cccnc3)cc(=O)c2cc1C | -1.5 | -1.3
O=C(CSc1ncnc2c1sc1cccc(F)c12)N1CCN(c2ccccc2)CC1 | 0.07 | ·
O=C(CN1CCCN(Cc2ccccc2F)CC1)c1ccc2cc[nH]c2c1 | · | -1.7
N#C/C(=C\c1ccccc1Cl)c1cccc(Cl)c1 | · | 0.7
O=C(c1ccc2c(=O)n3c(nc2c1)CCCCC3)N1CCN(c2ncccn2)CC1 | 1.4 | -1.6
CCN1C(=O)Cc2cc(NS(=O)(=O)c3ccc(F)cc3F)ccc21 | 1.6 | ·
COc1cccc(C2C(C(=O)OC(C)C)=C(C)Nc3nc4ccccc4n32)c1 (stereo unspecified) | 0.45 | -1.4
Continuation:
SMILES | TAR Tat displ | CDC25B CDK2 inh
O=C(NCc1ccncc1)c1c(O)nc2ccccn2c1=O | 2.1 | -0.98
CC(=O)N1CCOc2ccc(S(=O)(=O)N3CCCC3C(=O)N3CCc4ccccc43)cc21 (stereo unspecified) | -1.8 | ·
O=C(c1ccc(F)cc1)c1[nH]c2ccccc2c1C(=O)O | 1.9 | ·
Nc1nonc1C(=O)NCCNC(=O)c1cccs1 | 0.05 | -0.75
COc1cc2c(c(OC)c1OC)-c1ccc(OC)c(=O)cc1[C@@H](NC(C)=O)CC2 | 2.4 | -1.2
COc1cc(C2CC(=O)Nc3nc(N)[nH]c(=O)c32)ccc1OCc1cccc(Cl)c1 (stereo unspecified) | -2.1 | 1.7
CCSCCOC(=O)C1=C(C)NC2=C(C(=O)C(C(=O)OC)C(C)C2)C1c1ccc2c(c1)OCO2 (stereo unspecified) | -0.65 | -1.4
Cn1nnnc1SCCCNCc1cccc(OCc2ccccc2)c1 | 2.2 | -2
CCCCCCCn1cnc2c(sc3nc4c(cc32)COC(C)(C)C4)c1=O | 0.88 | 2.9
Cc1ccc(C(CNC(=O)c2cc(-c3cccs3)on2)N2CCC(C)CC2)o1 (stereo unspecified) | -1.4 | 0.09
CCCCn1c(C)c(C)c2c1ncn1nc(Cc3ccc(OC)cc3)nc21 | 0.12 | -0.68
Cc1nc2c3cccnc3nn2c(C)c1CCC(=O)N1CCN(Cc2ccc3c(c2)OCO3)CC1 | -0.45 | -0.93
CCC12CN3CC(CC)(CN(C1)C3c1ccc(Br)cc1)C2=O (stereo unspecified) | 0.04 | -1.8
CC1CCN(C(=O)c2noc3ncnc(N4CCCC4)c23)CC1 | -1.2 | ·
Cc1cc(C(=O)N2CCC(C(=O)O)CC2)c(C(F)(F)F)o1 | · | -2.6
CCOC(=O)CSc1nnc2c3ccccc3nc(-c3ccc(C)cc3)n12 | 1.1 | ·
Cc1cc(N2CCOCC2)n2nc(C)c(-c3ccc(F)cc3)c2n1 | -0.47 | -2.5
COc1cc(C(=O)Nc2ccccc2C(=O)Nc2ccccc2)cc(OC)c1OC | · | -0.97
Clc1ccc(-n2nnnc2-c2cnoc2-c2cccs2)cc1 | · | -1.2
O=C(CCSc1nc(-c2ccco2)cc(C(F)(F)F)n1)NCC1CCCO1 (stereo unspecified) | 0.21 | -1.9
COC1C=CC23c4cc5c(cc4CN(CC2O)[C@@H]3C1)OCO5 (stereo partly specified) | 0.41 | ·
CCC(C)N1C(=O)C2C(C(=O)Nc3ccc(C)c(C)c3)C3C=CC2(O3)C1C(=O)NC1CCCCC1 (stereo unspecified) | · | -0.39
Fc1ccc2nc(-c3ccc(Cl)c(Cl)c3)cnc2c1 | · | -1.5
CC(C)C1N=C2c3ccccc3N=C(SCC(=O)N3CCN(c4ccccc4F)CC3)N2C1=O (stereo unspecified) | 0.99 | ·
O=C(Cn1cnc2nc3c(cc2c1=O)CCCC3)N1CCC(N2CCCCC2)CC1 | 0.35 | ·

Arranged by molecular weight (high to low): some entries from above.
SMILES | TAR Tat displ | CDC25B CDK2 inh
CCSCCOC(=O)C1=C(C)NC2=C(C(=O)C(C(=O)OC)C(C)C2)C1c1ccc2c(c1)OCO2 (stereo unspecified) | -0.65 | -1.4
CCC(C)N1C(=O)C2C(C(=O)Nc3ccc(C)c(C)c3)C3C=CC2(O3)C1C(=O)NC1CCCCC1 (stereo unspecified) | · | -0.39
CC(=O)N1CCOc2ccc(S(=O)(=O)N3CCCC3C(=O)N3CCc4ccccc43)cc21 (stereo unspecified) | -1.8 | ·
COc1cc(C2CC(=O)Nc3nc(N)[nH]c(=O)c32)ccc1OCc1cccc(Cl)c1 (stereo unspecified) | -2.1 | 1.7
O=C(CCSc1nc(-c2ccco2)cc(C(F)(F)F)n1)NCC1CCCO1 (stereo unspecified) | 0.21 | -1.9
CCCCCCCn1cnc2c(sc3nc4c(cc32)COC(C)(C)C4)c1=O | 0.88 | 2.9
CCOC(=O)CSc1nnc2c3ccccc3nc(-c3ccc(C)cc3)n12 | 1.1 | ·
Cn1nnnc1SCCCNCc1cccc(OCc2ccccc2)c1 | 2.2 | -2
CCCCn1c(C)c(C)c2c1ncn1nc(Cc3ccc(OC)cc3)nc21 | 0.12 | -0.68
Cc1cc(N2CCOCC2)n2nc(C)c(-c3ccc(F)cc3)c2n1 | -0.47 | -2.5
CC1CCN(C(=O)c2noc3ncnc(N4CCCC4)c23)CC1 | -1.2 | ·
Cc1cc(C(=O)N2CCC(C(=O)O)CC2)c(C(F)(F)F)o1 | · | -2.6
COC1C=CC23c4cc5c(cc4CN(CC2O)[C@@H]3C1)OCO5 (stereo partly specified) | 0.41 | ·
O=C(NCc1ccncc1)c1c(O)nc2ccccn2c1=O | 2.1 | -0.98
Fc1ccc2nc(-c3ccc(Cl)c(Cl)c3)cnc2c1 | · | -1.5

The listing continues.
SMILES | TAR Tat displ | CDC25B CDK2 inh
O=C(Cn1c(=O)n(Cc2ccco2)c(=O)c2oc3ccccc3c21)Nc1ccc(F)cc1F | 1.1 | ·
O=C(c1cc2ccccc2s1)N1CCCN(c2nc3ccc(Cl)cc3s2)CC1 | · | -0.53
COc1cc(C2C(C(=O)OCc3ccccc3)=C(C)NC3=C2C(=O)CC(C)(C)C3)ccc1OC(C)=O (stereo unspecified) | 1.1 | -0.62
CSc1ccc(NC(=O)NCCN2CCN(c3cccc(Cl)c3)CC2)cc1 | 1.2 | -0.87
O=C(NCCCN1CCN(C2CCCCC2)CC1)c1csc2c1CCCC2 | -1.4 | -2.9
Nc1ccc([N+](=O)[O-])cc1C(=O)NNC(=O)c1ccco1 | · | -1.3
Cc1ccc2nc(SCc3nc4scc(C)n4c3Br)[nH]c2c1 | 0.21 | ·
COc1ccc(C2=NN3C(C2)c2cccc(OC)c2OC32CCCCC2)cc1 (stereo unspecified) | · | -1.6
CCn1c(C(=O)NC(C)c2ccc3c(c2)OCCO3)cc2sccc21 (stereo unspecified) | -2.4 | 0.14

Source: PubChem (Center for Chemical Genomics, University of Michigan)
